Source: PubChem (National Center for Advancing Translational Sciences (NCATS))
Vaccinia Venus – vaccinia inhibition (Venus reporter) | Vaccinia virus Venus reporter expression, fluorescence | Potency, µM (titrated, usually from 36.5 µM), without a hit: top-dose activity change, negative = inhibition, usual class: inhibitors | actives 0.46% (n = 330,000); active means well fitted inhibition curve with a large enough effect; inconclusive means small, poorly fitted or top-dose-only effect; inactive means no such curve, though single readings can be large or run the other way; tested in A549 cells; also: nearly all actives have a fitted effect of over 30% in size; inactives centre near -10
Vaccinia mCherry – vaccinia inhibition (mCherry reporter) | Vaccinia virus mCherry reporter infection, fluorescence; about a quarter of the inactives have no number | Potency, µM (highest dose often 36.5 µM), for inactives: top-dose activity change, negative = inhibition, hits mostly inhibitors | actives 0.63% (n = 310,000) | AID 720579; active = well fitted inhibition curve with a large enough effect; inconclusive = small, poorly fitted or top-dose-only effect; inactive = no such curve, though single readings can be large or run the other way; tested in A549 cells; also: nearly all actives have a fitted effect of over 35% in size; inactives centre near -10
Starred values were filed as active, the others as inactive; i = inactive; ? = inconclusive; . = not tested or not shown; & = joins results of further samples; [ ] = remark or other dose. % is scaled to controls: 0 for no effect and ±100 for the full control effect; potency is read from the fitted curve at half-maximal effect.

SMILES	Vaccinia Venus	Vaccinia mCherry
Cn1cc(S(=O)(=O)NCc2ccc3c(c2)OCO3)c(C(F)(F)F)n1	-5%	-24%
O=C(Cn1cc([N+](=O)[O-])ccc1=O)N1CCCc2ccccc21	-7%	-23%
O=C(c1ccco1)N1N=C2CCCCCC2C1(O)C(F)(F)F (centres undefined)	-13%	-5%
O=C(c1ccc(N2CCCC2)c([N+](=O)[O-])c1)N1CCN(S(=O)(=O)c2ccc(Cl)cc2)CC1	-30%	-14%
COc1ccc(C(=O)CC2OC(=O)c3c2ccc(OC)c3OC)cc1 (centres undefined)	-18%	.
Cc1cccc(NC(=S)NNC(=S)NC2CCCCC2)c1C	-11%	-27%
Cc1ccc([C@@H]2[C@@H]3C(=O)N(c4ccccc4)C(=O)[C@@H]3[C@]3(C)C(=O)N(Cc4ccccn4)CC(=O)N23)o1	2%	i
Cc1cc(/C=C2\C(=O)NC(=O)N(c3ccc(Br)cc3)C2=O)c(C)n1C	1%	-10%
Cn1c(CSc2ncn[nH]2)nc2ccccc21	-1%	.
CC(C)(C)n1cc(C(=O)c2ccc3ccccc3c2O)cn1	-3%	-11%
COc1ccc2[nH]c(CN3CCN(C(C)C)C(CCO)C3)c(C)c2c1 (centres undefined)	-1%	-18%
CCc1cc(=O)oc2cc(C)c3c(-c4ccc(F)cc4)coc3c12	-6%	5%
O=C(CN1CCCN(Cc2ccccc2F)S1(=O)=O)Nc1ccc(F)c(Cl)c1	-7%	-6%
C/C(=N\N1C(=O)c2ccccc2NC1c1ccccc1)c1ccccc1O (centres undefined)	?	?
CCc1cc2c(=O)c(-c3ccon3)c(N)oc2cc1OC	-10%	-10%
O=C(c1ccco1)N1CCN(c2nc3ccc(Cl)cc3s2)CC1	-27%	-21%
O=[N+]([O-])c1ccc(NCc2ccc(Cl)cc2)c2ccncc12	1%	-22%
COc1c(Cl)cc(Cl)cc1/C=C(\C#N)c1nc2ccccc2[nH]1	-7%	1%
Oc1ccccc1C1CC(c2cccs2)=NC(c2cccc(Br)c2)N1 (centres undefined)	-19%	-10%
Cc1ccsc1C(=O)N(Cc1nnc(-c2ccccc2Cl)o1)C1CC1	-13%	i

Copied from the list:
Result of Cn1cc(S(=O)(=O)NCc2ccc3c(c2)OCO3)c(C(F)(F)F)n1 in Vaccinia Venus: -5%
Result of CC(C)(C)n1cc(C(=O)c2ccc3ccccc3c2O)cn1 in Vaccinia Venus: -3%
Result of O=C(c1ccc(N2CCCC2)c([N+](=O)[O-])c1)N1CCN(S(=O)(=O)c2ccc(Cl)cc2)CC1 in Vaccinia Venus: -30%

New compounds follow
SMILES	Vaccinia Venus	Vaccinia mCherry
Cc1cc(C)c(S(=O)(=O)N2CCCC(C(=O)NCc3cccnc3)C2)c(C)c1 (centres undefined)	-22%	-12%
Cc1ccnc2nc(C(=O)OCCOc3ccc(Cl)cc3)nn12	-2%	-8%
Cc1cccc(NC(=O)c2ccc([N+](=O)[O-])o2)n1	-27%	-9%
Nc1nc(NCc2ccco2)nc(N2CCCCC2)c1[N+](=O)[O-]	-21%	-20%
COc1ccc(S(=O)(=O)N2CCCCC2)cc1NC(=O)CCc1nc2ccccc2c(=O)[nH]1	-25%	-4%
Cc1ccc(COC(=O)c2cccc(S(=O)(=O)N3CCCCC3)c2)cc1	-11%	-9%
COc1ccc(-c2cc3nc4c(c(=O)n3[nH]2)CCC4)cc1	1%	-8%
CCOC(=O)c1c(C)nc(-c2ccccc2)nc1NC(=O)CC	-10%	.
C(/C=C/C=C/Nc1ccccc1)=Nc1ccccc1	-6%	-15%
CCCCN1CC(=O)N2[C@H]3c4ccc(OC)cc4OC[C@@H]3[C@H](c3ccccc3)[C@]2(C)C1=O	-12%	-10%
Cc1cc(C)cc(NC(=O)CSc2nnc(-c3cc(C)[nH]n3)n2N)c1	-20%	i
NC(=S)NNc1cccc2cccnc12	-10%	-25%
COc1ccc(-c2noc(CCC(=O)NCC3CCCO3)n2)cc1 (centres undefined)	-12%	-24%
Cc1cc(C)n(-c2cccc(C(=O)NCC3Cc4cccc(-c5cccnc5)c4O3)c2)n1 (centres undefined)	-24%	i
Cc1ccc(S(=O)(=O)NCCC(=O)OCc2ccc([N+](=O)[O-])cc2)cc1C	-11%	-12%
CC(=O)OCC[n+]1c(C)n(-c2ccccc2)c2ccc(Cl)cc21	-2%	-14%
O=C(c1ccco1)N1CCN(Cc2cc(=O)c(OCc3ccccc3Cl)co2)CC1	0%	-6%
Cc1cccc(C)c1NC(=O)Nc1ccccc1-n1ccnc1	-6%	i
COC(=O)c1ccc(C)c(NS(=O)(=O)c2ccc(C)c([N+](=O)[O-])c2)c1	-26%	-39%
O=C(Nc1cc2c(cc1C(=O)c1ccccc1Cl)OCCO2)c1ccc(Br)cc1	-26%	-28%

Part of the list above in a different format:
molecule,Vaccinia Venus,Vaccinia mCherry
Cc1cc(C)cc(NC(=O)CSc2nnc(-c3cc(C)[nH]n3)n2N)c1,-20%,i
NC(=S)NNc1cccc2cccnc12,-10%,-25%
COc1ccc(-c2noc(CCC(=O)NCC3CCCO3)n2)cc1 (centres undefined),-12%,-24%

(continued)
SMILES	Vaccinia Venus	Vaccinia mCherry
CCOc1cc(/C=N/O)ccc1OCc1ccc(F)cc1	-22%	i
N#Cc1nc(-c2cccs2)oc1NCCCN1CCOCC1	-8%	i
O=C(CSc1nc2cc(C(F)(F)F)ccc2n1Cc1ccccc1)NC1CCS(=O)(=O)C1 (centres undefined)	-15%	-17%
O=C(Nc1ccc2oc(-c3ccccc3F)nc2c1)c1ccco1	-21%	i
Cc1nn2c(-c3ccc(Cl)cc3)ccnc2c1-c1ccccc1	0%	-7%
CCOC(=O)C1(CC2CC2)CCN(Cc2cc(Cl)c(O)c(OC)c2)CC1	0%	-6%
Cc1ccc(NC(=O)CN2C(=O)NC3(CCCC3)C2=O)c(Cl)c1	-3%	-15%
CN(Cc1cccc(F)c1)C(=O)c1ccccc1Sc1ccccc1C#N	-29%	-3%
COc1cc(NC(=O)CCl)ccc(=O)c1	?	?
Cc1c(C)n2c(SCC(=O)N3CCN(c4ccccc4)CC3)nnc2[nH]c1=O	-14%	i
O=C(Nc1ccccc1)[C@@H]1CCCN1S(=O)(=O)c1ccc(Cl)cc1	-1%	i
c1ccc(OCCCn2nnc(-c3ccncc3)n2)cc1	3%	-11%
CCn1c(N2CCN(S(=O)(=O)c3ccc(Cl)cc3)CC2)nc2ccccc21	-23%	?
CC(=O)Nc1ccc(-c2ccnc3c2CC(C(=O)Nc2ccc(Cl)c(C(F)(F)F)c2)O3)cc1 (centres undefined)	-9%	-15%
COc1ccc(-n2ncc3c2ncn2nc(COc4ccc(Cl)cc4)nc32)cc1	-8%	-10%
O=C1CSC(c2ccncc2)N1Cc1ccc(F)cc1 (centres undefined)	-16%	-22%
O=C(COC(=O)C1c2ccccc2Oc2ccccc21)Nc1ccc2c(c1)OCO2	-5%	.
Clc1ccc(-c2nc3ncccn3c2Cl)cc1	3%	-21%
CCCNC(=O)c1nnsc1Sc1ccc(Cl)cc1	-13%	i
CCOC(=O)c1c(N)sc(C(=O)Nc2ccccc2)c1C	-20%	-17%

Full records from above. Order of screens: Vaccinia Venus, Vaccinia mCherry
Listed for `NC(=S)NNc1cccc2cccnc12` : -10%, -25%
Listed for `O=C(c1ccco1)N1CCN(c2nc3ccc(Cl)cc3s2)CC1` : -27%, -21%

Next results:
SMILES	Vaccinia Venus	Vaccinia mCherry
CC(=O)c1cccc(NC(=O)CCn2c(=S)oc3ccccc32)c1	-6%	-10%
COc1ccc(CC(=O)NC(=S)Nc2ccc(S(N)(=O)=O)cc2)cc1	-3%	-20%
CN1CCN(c2ccc([N+](=O)[O-])cc2NC(=O)c2ccccc2)CC1	-8%	i
COC(=O)[C@H](CC(C)C)N(Cc1ccccc1)S(=O)(=O)N(Cc1ccccc1)[C@@H](CC(C)C)C(=O)OC	-10%&-19%	-25%&-20%
CCc1ccc(Nc2n[n+](-c3ccccc3)c(-c3cccc(Cl)c3Cl)s2)cc1	?	-2%
CCOc1ccc(C2NC(=O)CCC2[N+](=O)[O-])cc1 (centres undefined)	-12%	-13%
COC(=O)c1sccc1S(=O)(=O)N1CCN(c2ccc(C)cc2C)CC1	10%	1%
CCN1CCN(/C=N/c2nc(C)cs2)CC1	-2%	i
O=C(NCCCCc1ccccc1)c1cccc(NC(=O)C2CCC2)c1	-22%	?
CC1=NN(c2ccccc2)C(=O)/C1=C/c1c(O)[nH]c(=O)[nH]c1=O	6%	2%
c1ccc(C[C@H]2CN=C(Nc3ccccc3)N2CC2CCCCCC2)cc1	-30%	-22%
COC(=O)[C@@]12C[C@@H](CC(=O)NCCC(C)C)C(=O)N(Cc3ccc4c(c3)OCO4)C1=CCC(C)(C)C2	-8%	-14%
COc1cc(-c2nc3cccc(C)n3c2NCC2CCCO2)ccc1O (centres undefined)	-8%	-1%
O=Cc1ccc2ccc3cccnc3c2n1	5%	-2%
CCc1ccc(Nc2nc(C)cc(C)n2)cc1	-11%	-24%
Cc1ccc(C(C)(C)C)cc1S(=O)(=O)Nc1cccc(C(=O)N2CCN(c3ccccn3)CC2)c1	-20%	?
OC1(c2ccc3c(c2)CN(Cc2ccccn2)CCO3)CCN(c2ccccc2F)CC1	-7%	i
CC1CCCCC12NC(=O)N(CC(=O)NNC(=O)c1ccc(Br)cc1)C2=O (centres undefined)	5%	?
CO/N=C1\CCCc2c(C(=O)NN)sc(SC)c21	2%[7.34 µM]	-3%[7.34 µM]
CS(=O)(=O)N(CC(=O)NCc1ccco1)c1ccc(Cl)cc1Cl	-13%	-9%
Cc1nc(SCC(=O)Nc2c(C)n(C)n(-c3ccccc3)c2=O)[nH]c(=O)c1Cc1ccccc1	-5%	i
Cc1ccc(-c2nc3ccccc3s2)cc1NC(=O)COc1ccccc1	-11%	-11%
Cc1ccc(S(=O)(=O)N2CCCCC2C(=O)O)cc1 (centres undefined)	-5%	-5%
CCCn1c(=NC(=O)c2cc3ccccc3o2)c(C(=O)OCC)cc2c(=O)n3ccccc3nc21	-10%	-28%
COc1ccc(/C=N\Nc2ncc(F)c(N3CCOCC3)n2)cc1OC	-5%	-21%
COc1ccc(-c2cn3c(C)c(C(=O)Nc4cc(C)cc(C)c4)sc3n2)cc1	-25%	-27%
CC(C)(C)c1cc(S(=O)(=O)CCc2ccccn2)cc(C(C)(C)C)c1F	-19%	-8%
CC(=O)c1ccc(OCc2cc(C(=O)N3CC[C@@H]4CCCC[C@H]4C3)no2)cc1	-15%	-3%
CCn1nc(C)c(CCC(=O)O)c1C	-17%	-14%
N#Cc1c(-c2ccc(Cl)cc2)c(C#N)c(=O)n(N)c1N	-3%	-14%
O=C(Nc1cccc(Oc2ccccc2)c1)c1ccc(-n2cncn2)c2ccoc12	-6%	i
Nc1ccccc1C(=O)N=Nc1[nH]c(N)c2ccccc12	-25%	-17%
O=C(COC(=O)Cc1cn2ccsc2n1)NC12CC3CC(CC(C3)C1)C2	-9%	-11%
CC(=O)Nc1cccc(OCc2ccc(S(=O)(=O)Cc3ccccc3)cc2)c1	-15%	-4%
Fc1ccc(Cc2nnc(-c3cccs3)o2)cc1	-1%	-10%
C=CCn1cnnc1SCC(=O)N(C)CC1COc2ccccc2O1 (centres undefined)	-11%	-26%
O=C(Nc1ccccc1[N+](=O)[O-])c1cccc(N2C(=O)CCC2=O)c1	-18%	-8%
O=C(NC(=S)Nc1ccc(S(=O)(=O)Nc2nccs2)cc1)c1ccc(Br)o1	-17%	i
O=C(CCC1CCCCC1)NCc1ccncc1	-6%	-12%
CN(C)S(=O)(=O)c1ccc(Cl)c(NC(=O)CN2CCNC(=O)C2)c1	-2%	-2%
Cc1cc(C)cc(N(C(=O)CNC(=O)c2ccco2)C(C(=O)NC2CCCCC2)c2ccncc2)c1 (centres undefined)	9%	-12%
CCOC(=O)Cc1nnc(Nc2ccc(C(=O)NC)cc2)c2ccccc12	-16%[7.34 µM]	-8%[7.34 µM]
O=C(OCc1nc2ccsc2c(=O)[nH]1)c1ccco1	-11%	-9%
Cc1nc(C(=O)Nc2ccccc2Cl)cc2c1[nH]c1ccccc12	-10%	i
CCS(=O)(=O)Nc1ccc(NC(C)=O)cc1	-12%	-9%
CCCN(CCC)c1ccc(/C=C/c2ccnc3ccccc23)cc1	45%[activator]	-13%
O=[N+]([O-])c1ccccc1CNCCCCCO	-12%	-4%
Cn1c(-c2ccc(Cl)cc2)cnc1NCc1cc2c(cc1[N+](=O)[O-])OCO2	-17%	-5%
O=C(O)c1ccc(N2C(=O)CC(N3CCN(c4cccc(C(F)(F)F)c4)CC3)C2=O)cc1 (centres undefined)	-18%	i
COc1ccc(CC(=O)OCC(=O)Nc2ccc3c(c2)OCCO3)cc1OC	-3%	-13%
Next entries:
SMILES	Vaccinia Venus	Vaccinia mCherry
CCOC(=O)c1c(N)n[nH]c1-c1ccccc1	-7%	-18%
COc1cc(C(=O)NC2CCCc3ccccc32)cc(OC)c1C (centres undefined)	-2%	i
COc1cc(C(=S)N2CCCC2)ccc1OCc1ccccc1	-9%	i
CCOC(=O)C(C)(C)Sc1nc2c(cnn2-c2ccc(C)cc2)c(=O)[nH]1	-2%	-10%
CC(=O)N1c2ccc(S(=O)(=O)NCc3ccccc3Cl)cc2CC1C (centres undefined)	-10%	-15%
S=C(NCCN(C1CCCCC1)C1CCCC1)Nc1cccc(Cl)c1	?	?
C=CCOC(=O)C1=C(C)Nc2[nH]c(=O)[nH]c(=O)c2C1c1ccccc1 (centres undefined)	-4%	-21%
Cc1[nH]c(C)c2c(=O)n(-c3ccccc3)ncc12	-27%	-8%
